gsp antagonist = qHTS for Antagonists of gsp, the Etiologic Mutation Responsible for Fibrous Dysplasia/McCune-Albright Syndrome: qHTS; gsp-mutant cells, cAMP HTRF, 30 min; control for the full effect not named in the record; AID 624288, 2012; 0.4% of 340,000 active; Potency, µM (doses to about 76.9 µM), without a hit: top-dose activity change, negative = inhibition, hits mostly inhibitors; active = falling curve of any shape with a large fitted effect; inconclusive = falling curve, mostly with a smaller effect; inactive = flat or rising curve; cell line not stated here;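 further: intracellular cAMP measured with PDE inhibitor Ro 20-1724 present during compound exposure; potency means the concentration at half of the fitted maximal effect; on the % scale 0 is the no-effect control and ±100 the full control effect; nearly all actives have a fitted effect of over 65% in size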
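Cells in G418 medium, seeded 16-24 h, 37C; buffer exchange to DPBS + 1 mM CaCl2, 0.5 mM MgCl2, 0.05% BSA; cpds in DMSO + […] (300 uM stock), 30 min 37C; HTRF cAMP detection.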
PINK1 modulator = A Quantitative High throughput Screen to Identify Chemical Modulators of PINK1 Expression; PINK1 immunofluorescence, high-content cytometry, 24 h; Potency, µM (series often up to 76.6 µM), for the others: at the highest dose activation (PINK1 increase), most hits filed as activators; 0.2% of 410,000 active; AID 624263, 2012; active = well fitted activation curve with a large enough effect; inconclusive = small, poorly fitted or top-dose-only effect; inactive = flat fitted curve, though single readings scatter; cell line not stated here;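 further: potency means the concentration at half of the fitted maximal effect; % of control where 0% means no effect; nearly all actives have a fitted effect of over 65% in size; a mitochondrial uncoupler was the plate control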
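Decision-based qHTS: stable cells, 24 h exposure to five compound concentrations, CCCP as control. Fixed cells stained for PINK1 plus nuclear, mitochondrial and cell markers, cytometer read.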
gsp agonist = qHTS for Agonist of gsp, the Etiologic Mutation Responsible for Fibrous Dysplasia/McCune-Albright Syndrome: qHTS; gsp mutant cells, cAMP HTRF, 30 min; control for the full effect not named in the record; Potency, µM (highest dose often 76.9 µM), for the others: at the top dose activation (cAMP increase), usual class: activators; 0.13% of 340,000 active; active = well fitted activation curve with a large enough effect; inconclusive = small, poorly fitted or top-dose-only effect, or another doubt; inactive = no such curve, though single readings can be large or run the other way; cell line not stated here;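 further: phosphodiesterase inhibitor Ro 20-1724 added with compounds to block cAMP breakdown; potency means the concentration at half of the fitted maximal effect; nearly all actives have a fitted effect of over 60% in size; about a fifth of the inactives were tested at one dose only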
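Cells stably selected in G418 were plated at 2000/well, grown 16-24 hr, then given compounds in DMSO with the PDE inhibitor […] (300 uM solution added) for 30 min at 37C; cAMP was read by HTRF.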
Sfp inh = qHTS Assay for Inhibitors of Bacillus subtilis Sfp phosphopantetheinyl transferase (PPTase); Biochemical Sfp PPTase activity, qHTS; Potency, µM, inactives show max response, negative = inhibition, actives largely listed as inhibitors; 3.5% of 310,000 active; 4'-phosphopantetheinyl transferase ffp (Bacillus subtilis), Q9F4F7; active means well fitted inhibition curve with a large enough effect; inconclusive means small, poorly fitted or top-dose-only effect, or another doubt; inactive means no such curve, though single readings can be large or run the other way;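 further: the enzyme is Sfp with the accession as filed and its product quenches rhodamine fluorescence; potency means the concentration at half of the fitted maximal effect; 0% = enzyme reaction without inhibitor and -100% = no enzyme wells; top concentration of the series not given in the record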
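Buffer: 50 mM Hepes-Na pH 7.6, 10 mM MgCl2, 0.01% Nonidet P-40, 0.01% BSA. Enzyme 15 nM, pre-exposed to compound 15 min; substrates then added and fluorescence change tracked over 30 min.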
D2 ag = Beta-Arrestin HTS for Positive Allosteric Modulators of the Human D2 Dopamine Receptor: Agonists; D(2) dopamine receptor (Homo sapiens), P14416; DiscoveRx PathHunter D2 beta-arrestin, luminescence, 90 min; 100% = 57 uM dopamine signal; activation, % (test concentration not listed); 0.084% of 360,000 active; AID 624465, 2012; in the data active = activation above about 40%; inconclusive = about 15% to 40%; inactive = below about 15%; further: compound concentration not given in the record; the text of the record calls up to 30% inactive
Target sequence (P14416 whole entry, looked up): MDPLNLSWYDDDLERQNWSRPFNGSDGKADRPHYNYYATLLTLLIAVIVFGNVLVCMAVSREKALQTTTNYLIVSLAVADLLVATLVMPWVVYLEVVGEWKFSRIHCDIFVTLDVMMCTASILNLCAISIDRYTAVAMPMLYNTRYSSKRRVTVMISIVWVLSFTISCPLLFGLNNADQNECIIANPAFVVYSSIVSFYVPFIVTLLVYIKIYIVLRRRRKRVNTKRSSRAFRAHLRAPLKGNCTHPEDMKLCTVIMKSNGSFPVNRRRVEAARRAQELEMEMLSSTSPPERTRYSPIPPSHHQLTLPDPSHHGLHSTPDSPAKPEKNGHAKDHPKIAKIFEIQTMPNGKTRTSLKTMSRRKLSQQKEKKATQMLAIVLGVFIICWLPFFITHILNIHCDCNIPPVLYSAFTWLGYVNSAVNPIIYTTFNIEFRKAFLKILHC
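Agonist mode: compounds alone added to overnight-plated D2 PathHunter cells for 90 min at 37 C, with 57 uM final dopamine (EC100) defining full response. Beta-arrestin recruitment detected by chemiluminescent reagent, read after 1 h at ambient temperature.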
Menin-MLL FL inh = qHTS Assay for Inhibitors Targeting the Menin-MLL Interaction in MLL Related Leukemias: Competition With Fluorescein Labeled MLL-derived Peptide | Fluorescence polarization, fluorescein-MLL peptide displacement from menin | FP activity change, % at 61.4 µM | 290,000 tested, under 10 active; inconclusive = falling polarisation curve, or a change in total fluorescence; inactive = total fluorescence flat and polarisation flat or rising; no compound was filed as active; the % refers to the polarisation; negative = inhibition;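 further: % of control where 0% means no effect; inhibitors lower the polarisation; unlabelled MLL peptide was the positive control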
ClpP mod = qHTS Assay for Activators of ClpP. Potency, µM (series often up to 57.5 µM), for the others: at the top dose activity change, negative = active. 1.9% of 340,000 active. purified B. subtilis ClpP, FRET peptide cleavage, 20 min; active = well fitted falling curve with a large enough effect; inconclusive = small, poorly fitted or top-dose-only effect; inactive = no such curve, though single readings can be large or run the other way; further: potency means the concentration at half of the fitted maximal effect; the source files actives as falling curves though it sought activators and does not explain the sign; nearly all actives have a fitted effect of over 65% in size; many hits overshoot -100%
Target sequence (P80244 whole entry, looked up): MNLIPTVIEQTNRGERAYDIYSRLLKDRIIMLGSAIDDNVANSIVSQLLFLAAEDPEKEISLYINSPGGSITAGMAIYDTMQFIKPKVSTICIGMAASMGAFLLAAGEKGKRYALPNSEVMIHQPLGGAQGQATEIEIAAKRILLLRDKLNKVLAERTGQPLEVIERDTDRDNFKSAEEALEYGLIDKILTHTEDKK
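Buffer: 100 mM Tris/HCl pH8, 100 mM KCl, 0.05% low protease BSA, 2.5% glycerol, 0.01% Tween-20. ClpP 10 microg/mL final; 20 min RT; delta FRET normalized to ADEP and DMSO controls.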
Active calls of the source: *; ? = inconclusive; / = no result given; [ ] = remark or other dose.

SMILES	gsp antagonist	PINK1 modulator	gsp agonist	Sfp inh	D2 ag	Menin-MLL FL inh	ClpP mod
COC(=O)c1sccc1NC(=O)c1cccc(Cl)c1	-17.9%	1.3%	0.2%[15.4 µM]	/	-6.8	/	-22.8%
COc1ccc(CC2(CO)CCN(C(C)Cc3ccc(Cl)cc3)CC2)cc1 (centres undefined)	15.3%	9.6%	7.5%	8.1%	-1.3	1.6	/
Cc1ccccc1Nc1nnc(SCC(=O)Nc2ccccc2[N+](=O)[O-])s1	-15.5%	0.8%	1.8%[15.4 µM]	3.6%	-6.6	1.6	31.6µM*
O=C(NCC1CCCO1)c1cc(C(=O)C2CCCCC2)c[nH]1 (centres undefined)	-1.2%	0.1%	-24.8%	16.8%	1.1	0.5	1.4%
Cc1c(C)c2c(OCC(=O)NCCCO)cc3c(c2oc1=O)CCC(C)(C)O3	-7.7%	7.5%	-4.2%	12.8%	-2.8	0.1	/
C/C(=N\NC(=O)c1nnn(-c2nonc2N)c1COc1ccc(F)cc1)c1ccc(Cl)cc1	10.1%	2.5%	-4.2%[15.4 µM]	16.8%	-2.7	1.1	-1.7%
COc1ccc(NC(=O)CSc2nnc(C3CCCCC3)n2-c2ccccc2)cc1	-25.0%	-3.4%	28.5%	14.0%	-0.9	-0.4	1.3%
O=C(Nc1ccc(C(=O)N2CCOCC2)cc1)c1ccccc1Cl	/	1.2%	-19.2%	/	-5.9	/	-1.1%
Fc1cccc(NCc2cn3ccccc3n2)c1	2.9%	-0.4%	-38.1%[inhibitor]	9.7%	-0.8	-3.1	-1.9%
COC(=O)c1ccccc1NC(=S)NC(C)=O	9.5%	0.7%	-4.6%	18.0%	-6.8	-1.9	2.4%
COc1cc(/C=C(\C#N)C(=O)Nc2ccccn2)ccc1O	?	0.3%	18.0%[15.4 µM]	7.1%	-5.7	?	/
O=C(O)c1ccc(-c2nc(-c3ccccc3)c(-c3ccccc3)[nH]2)cc1	?	0.1%	2.7%[15.4 µM]	8.4%	-4.3	8.1	0.5%
Cc1nc(N/N=C/c2ccccn2)sc1C	4.9%	12.1%	-1.5%	-10.3%	6.6	0.2	-4.4%
Cc1cccc(/C=C2\Sc3ccc(C(=O)NCC4CCCO4)cc3N(C)C2=O)c1 (centres undefined)	-9.1%	3.2%	34.6%	-12.4%	-2.2	/	/
C[C@H](CO)N1C[C@H](C)[C@@H](CN(C)C(=O)Nc2ccc3c(c2)OCO3)Oc2ccc(NC(=O)Cn3cnnn3)cc2C1=O	14.5%	1.0%	/	/	0.2	/	-0.5%
Cc1ccccc1NC(=O)C1CCCN(c2ncnc3onc(-c4ccc(F)cc4)c23)C1 (centres undefined)	-13.4%	2.2%	5.5%	3.5%	2.0	-0.3	-2.1%
O=S(=O)(c1ccc(Oc2ccc(S(=O)(=O)N(CCO)CCO)cc2)cc1)N(CCO)CCO	11.0%	0.1%	-39.0%[inhibitor]	10.4%	-3.5	-2.3	1.1%
COc1ccc(CC(=O)NC(C)(C)CC(C)=O)cc1OC	-3.5%	1.5%	32.2%	5.9%	-2.1	2.6	-1.3%
COc1ccc(CC2(CO)CCN(Cc3cnc(-c4ccccc4C)nc3)CC2)cc1	-4.2%	-0.8%	0.6%	1.7%	-2.7	0.5	-1.3%
CCN(Cc1ccncc1)C(=O)c1cc(Br)cc(Br)c1O	-3.6%	0.1%	18.2%	11.4%	1.8	-0.2	/
Cc1ccc(S(=O)(=O)Cc2ccc(C(=O)NCCCN3CCN(C)CC3)o2)cc1	6.8%	0.7%	-27.7%	11.3%	-1.3	-0.8	1.0%
CCN(CC)S(=O)(=O)c1ccc(OC(C)C)nc1	4.3%	-1.4%[38.3 µM]	-5.7%	9.3%	-1.4	-0.6	-0.5%
O=C(CCNC(=O)c1ccc([N+](=O)[O-])cc1)NCc1ccco1	9.7%	-0.6%	-3.3%	/	-0.2	/	-3.4%
O=C(CSc1cn[nH]n1)Nc1nc2ccccc2s1	-6.4%	0.2%	19.9%[15.4 µM]	34.9%[activator]	-3.0	0.0	/
CN1CCSc2ccc(C(=O)Nc3cccc(F)c3)cc21	-14.2%	-1.3%	16.6%[15.4 µM]	-25.3%	0.5	4.4	/

Carrying on.
SMILES	gsp antagonist	PINK1 modulator	gsp agonist	Sfp inh	D2 ag	Menin-MLL FL inh	ClpP mod
CCCC(=O)Nc1ccc(N2CCN(C(=O)CCC)CC2)cc1	0.8%	-0.9%	-12.4%	8.2%	-2.4	0.6	-1.0%
CCCCc1ccc(NC(=S)NCCCN2CCOCC2)cc1	12.9%	0.5%	-75.0%[inhibitor]	-15.1%	-1.5	4.2	1.0%
Cc1nc(N2CCN(C(=O)c3ccc(Cl)cc3)CC2)c(C#N)c2c1COC(C)(C)C2	?	0.7%	3.8%	-4.0%	-3.0	-2.1	?
O=S(=O)(c1ccccc1)c1nc(-c2ccco2)oc1N1CCOCC1	-0.6%	-1.9%	-45.4%[inhibitor]	-5.3%	-1.6	2.4	-0.3%
O=c1[nH]c(CN2CCN(c3ccccc3)CC2)nc2scc(-c3ccccc3)c12	4.5%	8.8%	2.2%	2.5%	-4.5	29.4	?
COc1cc(C(=O)NC(CCSC)C(=O)OCC(=O)C(C)(C)C)cc(OC)c1OC (centres undefined)	1.1%	-0.6%	-17.9%	-1.9%	-4.9	-1.1	-0.7%
CCOC(=O)c1nc(C)c(C(C)=O)s1	12.6%	4.6%	/	14.3%	2.6	3.3	2.7%
Cc1ccc(C(=O)c2nc3c(n2O)CCCC3)cc1	2.0%	-0.8%	-11.7%	-11.5%	-0.8	4.3	0.6%
CC(C(=O)Nc1ccc(S(=O)(=O)Nc2ncccn2)cc1)N1C(=O)c2ccccc2S1(=O)=O (centres undefined)	1.7%	6.8%	-8.5%[15.4 µM]	/	-0.7	/	/
Cc1cc(C2=NNC(=Nc3ccc(S(=O)(=O)N4CCOCC4)cc3)SC2)c(C)n1C	1.0%	18.2%	-2.7%[15.4 µM]	12.6µM*	-2.6	7.1	/
COC(=O)CSc1nc(NC(C)=O)nc(C)c1Br	-5.8%	5.8%	16.2%	-4.6%	-2.0	0.3	-0.2%
CCOC(=O)C1=C(C)N(C)C(=O)NC1c1ccccc1OC (centres undefined)	7.3%	0.6%	4.6%	17.4%	-2.4	-0.1	-0.6%
C(=C\c1ccccc1)/CSc1nnc(-c2ccncc2)n1Cc1ccco1	-3.4%	-0.4%	9.2%	50.1µM*	0.4	1.2	-1.4%
Cc1ccc(S(=O)(=O)CC(=O)N(CCCN2CCOCC2)c2nc3c(F)cccc3s2)cc1	-18.9%	2.2%	6.7%[15.4 µM]	/	-2.1	/	/
O=C(OCC(=O)N1CCC(Cc2ccccc2)CC1)c1cccnc1Cl	?	-1.7%	2.7%	/	-0.5	/	/
COc1cccc(CNC(=O)COC(=O)c2nn(C)c(=O)c3ccccc23)c1	-6.4%	0.1%	22.5%	/	-1.5	/	/
Cc1noc(C)c1S(=O)(=O)N1CCN(Cc2ccc3c(c2)OCO3)CC1	0.8%	0.1%	2.9%	13.6%	4.9	-1.3	1.9%
COc1cccc(C(=O)Nc2cc(C)nn2-c2ccccc2)c1OC	-30.4%	2.3%	-5.5%[15.4 µM]	3.4%	-2.0	/	/
O=c1oc(CCCO)cc2ccc(Br)cc12	10.3%	-1.0%	/	/	-1.5	/	-4.8%
Cc1cccc2cc(CN(CC3CCCO3)C(c3nnnn3Cc3ccco3)C(C)C)c(=O)[nH]c12 (centres undefined)	?	3.8%	14.5%	-7.6%	-4.1	1.9	-5.7%
S=C(NC1CCCCC1)NN1CCCCCC1	3.6%	0.8%	-1.0%[15.4 µM]	/	-2.8	/	-0.6%
O=C(Nc1ccc(F)c([N+](=O)[O-])c1)c1cccs1	-15.8%	-0.7%	-0.2%	-9.0%	-19.1	-2.2	2.1%
COc1ccc(C(=O)NCC2(c3ccc(OC)c(OC)c3)CCCC2)cc1OC	/	3.2%	0.1%	/	-0.4	/	-0.6%
O=C1N(C2CCCC2)C[C@@H]2C[C@@H](c3cn[nH]c3-c3ccc(Cl)cc3)N3CCC[C@@]123	-23.2%	-1.1%	-3.5%[15.4 µM]	7.6%	-0.7	0.2	/
CSc1ccc(-c2sc(Nc3ccccc3)n[n+]2-c2ccccc2)cc1	-8.1%	1.6%	/	?	-6.2	11.1	1.7%

Following part:
SMILES	gsp antagonist	PINK1 modulator	gsp agonist	Sfp inh	D2 ag	Menin-MLL FL inh	ClpP mod
Cc1cc(C)c(S(=O)(=O)NNC(=O)C2CCN(Cc3ccccc3)CC2)c(C)c1	1.4%	-1.3%	3.7%	2.5%	0.3	4.8	-0.4%
CSCCC(C(=O)Nc1c(C)cccc1C)N1CCN(c2ccc(C(F)(F)F)cn2)CC1 (centres undefined)	/	4.0%	/	/	-3.3	/	135.5%
CCOc1c(Br)cc(C(=O)N2CCCN(C)CC2)cc1OC	5.9%	-2.4%	-32.9%	25.3%	-16.2	8.3	0.6%
CC1(CCC(=O)O)C(=O)CCC2C1CCC1(C)C2CCC1(C)O (centres undefined)	15.2%	-5.1%	0.8%	/	-2.1	/	0.4%
NNC(=O)c1oc2nc(-c3ccc(Cl)cc3)cc(-c3ccccc3)c2c1N	-1.4%	3.3%	-25.8%[15.4 µM]	1.3%	-0.7	7.3	/
CCOc1ccc2nc(SCC(=O)Nc3ccc4[nH]c(=O)[nH]c4c3)[nH]c2c1	3.1%	-0.1%	27.2%	/	5.2	/	-4.8%
CCOc1cc(/C=N/Nc2nc(C)cc(=O)[nH]2)ccc1O	11.9%	2.1%	?	?	2.9	-10.6	-3.6%
CN(C)S(=O)(=O)c1ccc2c(c1)nc(CCC(=O)O)n2C	10.0%	-1.3%	?	18.9%	6.8	-15.4	/
CCOC(=O)c1cc(-c2ccc(N3CCOCC3)cc2)nn1-c1ccc(F)cc1F	-26.8%	-0.4%	-0.6%	1.6%	-4.5	1.1	-2.3%
COC(=O)[C@H](CC(C)C)N1Cc2cc(OC)cc(OC)c2-c2ccccc2S1(=O)=O	-4.2%	-0.7%	/	/	1.0	/	4.7%
O=C(Cc1c(F)cccc1Cl)OCC(=O)c1ccc[nH]1	11.8%	-1.1%	-0.7%[15.4 µM]	/	-1.1	/	0.6%
O=C1NN(c2ccccc2)C(=O)/C1=C\c1ccc2c(c1)OCO2	-16.1%	0.2%	5.5%[15.4 µM]	4.5%	3.6	2.5	-0.4%

Source: PubChem BioAssay
